Rango dissoc inh – qHTS Assay for Inhibitors of RanGTP induced Rango (Ran-regulated importin-beta cargo) - Importin beta complex dissociation; Biochemical FRET Rango-importin beta, RanGTP-induced dissociation; Snurportin-1 (Homo sapiens) + GTP-binding nuclear protein Ran (Homo sapiens) + Importin …; Potency, µM (series often up to 46.1 µM), inactives show at the top dose activity change, negative = inhibition; hit rate 0.071% among 340,000; active means falling FRET ratio curve, often poorly fitted, with flat reads before Ran was added; inconclusive means other falling curves, or compound fluorescence or quenching; inactive means flat or rising ratio curve;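 note: potency is the fitted concentration of half-maximal effect; % of control where 0% means no effect; nearly all actives have a fitted effect of over 45% in size; -100% = wells without RanGTP and RCC1; the record marks most hits as doubtful in a second field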
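Compounds preincubate 5 min with complex of recombinant Rango and importin beta in PBS with 1 mM DTT. Ran (0.6 uM) loaded with 2 mM GTP plus 0.2 uM RCC1 starts dissociation; FRET is recorded 45 min later.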
miR-21 reporter – qHTS Assay for Modulators of miRNAs and/orActivators of miR-21. Potency, µM (highest dose often 38.3 µM), without a hit: top-dose reporter change, positive = more light. HeLa miR-21 FLuc reporter, luciferase, 48 h. 340,000 tested, under 10 active; active = well fitted rising curve with a large enough effect; inconclusive = small, poorly fitted or top-dose-only effect; inactive = no such curve, though single readings can be large or run the other way;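 note: % of control where 0% means no effect; miR-21 action dims this reporter so a rising signal means less miR-21 action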
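HeLa miR-21-FLuc reporter line, endogenous miR-21; 2000 cells/well in DMEM/10% FBS; compound titration up to ~40uM final, 48 h, 37 degree Celsius; luciferase detection reagent, 15 min lysis, CCD luminescence.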
Rango complex inh – qHTS Assay for Inhibitors of Rango (Ran-regulated importin-beta cargo) - Importin beta complex formation | Rango CFP/YFP FRET sensor + importin beta, 45 min | AID 540263, 2011 | hit rate 0.031% among 340,000 | Importin subunit beta-1 (Homo sapiens), Q14974 | Potency, µM (top dose mostly 92.2 µM), inactives show top-dose inhibition of complex formation; active = rising FRET ratio curve, often small or poorly fitted; inconclusive = mostly compound fluorescence or quenching in the first reads; inactive = flat curves in all reads;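 note: potency is the fitted concentration of half-maximal effect; 0% = DMSO wells and 100% = buffer wells lacking importin beta; nearly all actives have a fitted effect of over 15% in size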
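FRET biosensor Rango (snurportin 1 IBB between N-terminal EYFP and C-terminal Cerulean), 50 nM in PBS/1 mM DTT/0.02% Tween-20/0.1% BSA, preincubated 5 min RT with compound; 0.125 microM importin beta added, 45 min RT, CFP/YFP FRET ratio read.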
GLA inh pH 4.5 – qHTS Assay for Inhibitors of Human alpha-Galactosidase at pH 4.5; AID 1467, 2008; purified enzyme, 4-MU-alpha-Gal fluorescence, pH 4.5; activity change, negative = inhibition, % at 105 µM; 230,000 tested, under 10 active; inconclusive = small, poorly fitted or top-dose-only inhibition, or a rising curve; inactive = flat fitted curve, though single readings scatter; no compound was filed as active;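 note: 0% = full activity with enzyme and -100% = basal without enzyme; dose as in the result columns while the protocol names 77 µM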
Target sequence (P06280 whole entry, looked up): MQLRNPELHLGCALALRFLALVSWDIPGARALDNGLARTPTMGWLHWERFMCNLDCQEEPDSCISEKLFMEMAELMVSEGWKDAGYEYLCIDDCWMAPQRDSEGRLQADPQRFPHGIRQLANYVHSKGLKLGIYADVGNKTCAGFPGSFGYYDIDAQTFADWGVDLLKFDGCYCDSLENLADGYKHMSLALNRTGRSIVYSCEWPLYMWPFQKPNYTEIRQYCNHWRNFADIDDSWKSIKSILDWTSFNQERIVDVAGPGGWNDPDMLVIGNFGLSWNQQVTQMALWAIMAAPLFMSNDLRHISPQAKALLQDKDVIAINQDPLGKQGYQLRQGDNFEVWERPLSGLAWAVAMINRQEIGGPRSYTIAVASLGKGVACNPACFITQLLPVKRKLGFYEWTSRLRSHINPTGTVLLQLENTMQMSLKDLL
* hit, by the source's call; ? = inconclusive; . = not tested or not shown. Some of the compounds tested; the hit share may differ from the screen's.

nr	Rango dissoc inh	Rango complex inh	GLA inh pH 4.5	miR-21 reporter	SMILES
1	0%	-0.9%	.	-7%	CC(C)COC(=O)C1C(=O)CC(C)(O)C(C(=O)OCC(C)C)C1c1cccnc1 (configuration not stated)
2	-6%	-2.0%	-8	-2%	O=C(C(=O)N1CCc2ccccc2C1)c1cn(CC(=O)N2CCOCC2)c2ccccc12
3	0%	-2.2%	.	-47%	COc1ccccc1NC(=O)NC(=O)c1ccccc1
4	-7%	0.0%	-1	2%	CCc1nc(N)c(C#N)c(-c2cccc3ccccc23)c1C
5	-23%	1.1%	0	0%	O=C(NCCCNCc1ccccc1)c1ccc(/C=N/O)nc1
6	?	?	.	-9%	C=CCOc1cccc(C2C(C(=O)c3cc4ccccc4o3)=C(O)C(=O)N2c2cc(C)on2)c1 (configuration not stated)
7	30%	-5.7%	.	.	COc1ccc(C(=O)Nc2ccc3[nH]ccc3c2)cc1OC
8	-5%	-1.7%	12	1%	Cc1nn(CC(=O)NCc2ccccc2)c(C)c1[N+](=O)[O-]
9	-22%	-5.4%	-7	-1%	CCOc1cccc(SCc2noc(C(=O)NC(C)C)c2C(=O)O)c1
10	1%	4.9%	.	-10%	N#CCn1c(Cc2ccccc2)nc2ccccc2c1=O
11	16%	5.3%	7	4%	Cc1ccc(C(C(=O)NC(C)(C)C)N(Cc2cccnc2)C(=O)C(=O)NC2CCCCC2)o1 (configuration not stated)
12	-1%	1.8%	-23	3%	Cc1ccc(C(C)C)c(OCC(=O)Nc2ccccc2N2CCN(C)CC2)c1
13	4%	-3.5%	.	.	COc1ccc(NS(=O)(=O)c2ccc(C)c(C(=O)NNC(=O)c3csc(N4CCOCC4)n3)c2)cc1
14	3%	-2.5%	-13	-42%	Cc1occc1C(=O)Nc1ccc2c(c1)OCCO2
15	-21%	5.7%	.	.	COc1ccc(-c2ccc3c(c2)S(=O)(=O)c2cccc(C(=O)NCc4cc(C)oc4C(F)(F)F)c2C3=O)cc1OC
16	-9%	-3.1%	.	.	COc1ccc(C2(c3ccc(OC)cc3)NC(=O)N(CC(=O)N3CCOCC3)C2=O)cc1
17	-3%	5.2%	.	-6%	CCCN(CCC)Cc1c(C(=O)N/N=C/CCc2ccccc2)nnn1-c1nonc1N
18	5%	5.9%	.	.	COc1ccc(C(C(=O)NC(C)(C)C)N(C[C@H]2CC[C@@H]([C@@H]3CC[C@H](CO)O3)O2)C(=O)c2ccccc2)cc1 (some centres not stated)
19	-9%	0.5%	2	-47%	CCCCC(=O)Nc1ccc2c(c1)nc1n2CCOC1
20	11%	4.6%	-6	-18%	O=C(Nc1ccc(Cl)cc1)N(CCCN1CCOCC1)Cc1cccs1

Look-ups from above.
In miR-21 reporter, #12 has the entry 3%
In GLA inh pH 4.5, #8 has the entry 12
In GLA inh pH 4.5, #20 has the entry -6

Next results:
nr	Rango dissoc inh	Rango complex inh	GLA inh pH 4.5	miR-21 reporter	SMILES
21	14%	-0.3%	-20	-36%	CC(C)c1nnc(NC(=O)CSc2ccccc2)s1
22	2%	-3.5%	.	-1%	Cc1cc(OC(=O)c2cccc(Br)c2)c([N+](=O)[O-])c(=O)[nH]1
23	9%	0.5%	0	20%	CCCCCC1CCC(c2n[nH]c(=S)n2C)CC1 (configuration not stated)
24	7%	1.5%	4	-15%	Cc1ccc(Sc2ncccc2C(=O)O)cc1
25	15%	-1.4%	.	-7%	O=C(Oc1ccc(Br)cc1)c1cccnc1
26	-8%	-2.1%	0	-7%	CC(=O)c1cccc(NC(=O)CN(C2CCCCC2)S(C)(=O)=O)c1
27	-7%	5.8%	-5	-1%	Cc1cc(C)nc(SCc2nnc(SCC(=O)Nc3ccc(Cl)c(C(F)(F)F)c3)o2)n1
28	5%	-3.3%	6	-6%	COc1cccc(CC2(CO)CCCN(Cc3sc(N4CCCC4)nc3Cl)C2)c1 (configuration not stated)
29	-12%	1.2%	8	-4%	CCOC(=O)C1CCN(CC(=O)N(CC(C)C)c2c(N)n(CC(C)C)c(=O)[nH]c2=O)CC1
30	0%	0.4%	.	-2%	CC(Nc1ccc(F)cc1)=[N+](C)CCNS(=O)(=O)c1ccc(Cl)cc1
31	17%	3.9%	4	-2%	NS(=O)(=O)c1ccc(NS(=O)(=O)/C=C/c2ccccc2)cc1
32	-10%	-0.1%	6	-2%	O=C(O)C1CCCN1c1ncccn1 (configuration not stated)
33	24%	2.4%	.	0%	COc1ccc(S(=O)(=O)Nc2cccc(C)c2C)c2cccnc12
34	?	-1.1%	.	.	O=C(COC(=O)Cc1ccsc1)Nc1ccc(F)cc1Cl
35	-10%	0.2%	.	-52%	Cc1ccc(-n2c(SCC(=O)N3CCC(C(=O)O)CC3)nc3ccccc3c2=O)cc1C
36	21%	-2.8%	.	.	CCOc1ccccc1NC(=O)CSc1nc2[nH]ncc2c(=O)[nH]1
37	-10%	0.0%	.	0%	CC(Oc1ccc(F)cc1)C(=O)Nc1cc(S(=O)(=O)N2CCOCC2)ccc1N1CCCC1 (configuration not stated)
38	-3%	0.0%	.	-34%	C/C(=N\Nc1ccc(Cl)cc1)c1ccncc1
39	17%	0.6%	-1	-2%	COc1cccc(CNCCSc2nnnn2C)c1OC
40	16%	0.6%	-16	-1%	Cc1cc(C)n2nc(C(=O)OCC(=O)c3cc(C)n(CC4CCCO4)c3C)nc2n1 (configuration not stated)

Only Rango dissoc inh, Rango complex inh and GLA inh pH 4.5, for some of the entries so far:
cpd | structure | Rango dissoc inh | Rango complex inh | GLA inh pH 4.5
26 | CC(=O)c1cccc(NC(=O)CN(C2CCCCC2)S(C)(=O)=O)c1 | -8% | -2.1% | 0
27 | Cc1cc(C)nc(SCc2nnc(SCC(=O)Nc3ccc(Cl)c(C(F)(F)F)c3)o2)n1 | -7% | 5.8% | -5

By substructure: those above containing an aryl thioether with sulfur outside any ring.
nr	Rango dissoc inh	Rango complex inh	GLA inh pH 4.5	miR-21 reporter	SMILES
9	-22%	-5.4%	-7	-1%	CCOc1cccc(SCc2noc(C(=O)NC(C)C)c2C(=O)O)c1
21	14%	-0.3%	-20	-36%	CC(C)c1nnc(NC(=O)CSc2ccccc2)s1
24	7%	1.5%	4	-15%	Cc1ccc(Sc2ncccc2C(=O)O)cc1
27	-7%	5.8%	-5	-1%	Cc1cc(C)nc(SCc2nnc(SCC(=O)Nc3ccc(Cl)c(C(F)(F)F)c3)o2)n1
35	-10%	0.2%	.	-52%	Cc1ccc(-n2c(SCC(=O)N3CCC(C(=O)O)CC3)nc3ccccc3c2=O)cc1C
36	21%	-2.8%	.	.	CCOc1ccccc1NC(=O)CSc1nc2[nH]ncc2c(=O)[nH]1
39	17%	0.6%	-1	-2%	COc1cccc(CNCCSc2nnnn2C)c1OC

Arranged by SMILES length (highest first): part of the list above
nr	Rango dissoc inh	Rango complex inh	GLA inh pH 4.5	miR-21 reporter	SMILES
18	5%	5.9%	.	.	COc1ccc(C(C(=O)NC(C)(C)C)N(C[C@H]2CC[C@@H]([C@@H]3CC[C@H](CO)O3)O2)C(=O)c2ccccc2)cc1 (some centres not stated)
17	-3%	5.2%	.	-6%	CCCN(CCC)Cc1c(C(=O)N/N=C/CCc2ccccc2)nnn1-c1nonc1N
21	14%	-0.3%	-20	-36%	CC(C)c1nnc(NC(=O)CSc2ccccc2)s1
24	7%	1.5%	4	-15%	Cc1ccc(Sc2ncccc2C(=O)O)cc1

(continued)
nr	Rango dissoc inh	Rango complex inh	GLA inh pH 4.5	miR-21 reporter	SMILES
41	16%	-1.7%	5	1%	CCOC(=O)c1cnn(-c2ccccc2)c1-n1cccc1
42	-10%	-0.4%	-16	7%	COc1ccc(N(CC(=O)Nc2ccc(S(=O)(=O)N3CCOCC3)cc2)S(=O)(=O)c2ccccc2)cc1
43	.	.	5	27%	O=C1[C@@H]2Cc3c([nH]c4ccccc34)[C@@H](c3ccccc3)N2C(=O)[C@@H]2Cc3c([nH]c4ccccc34)[C@@H](c3ccccc3)N12
44	4%	0.0%	-1	3%	S=C(Nc1ccc(Cl)cc1)NC1CCCCC1
45	14%	-1.3%	4	-16%	COc1cc(N(C(=O)Cc2cccs2)C(C(=O)NC2CCCCC2)c2cccc(OC)c2OC)ccc1-n1cnnn1 (configuration not stated)
46	-10%	1.4%	-10	0%	CC(C)(C)N(Cc1ccccc1)C(=O)COC(=O)Cn1cnc2ccccc2c1=O
47	-1%	-1.4%	-15	0%	Cc1ccc(S(=O)(=O)N2CCN(c3ncnc4c3cnn4-c3ccccc3)CC2)cc1
48	-21%	-2.3%	4	-8%	COc1ccc(CCNC(=O)c2cnn3ccccc23)c(OC)c1OC
49	-10%	5.6%	.	1%	CCOc1ccccc1C(=O)NCC(=O)O
50	-2%	-0.9%	-4	-11%	c1ccc(-c2cc(-c3nnc4n3N=C(c3ccc5ccccc5c3)CS4)[nH]n2)cc1
51	-1%	-5.3%	.	.	CN(C(=O)c1ccc(NC(=O)Cc2cccc(NC(=O)C3CCCN(C(=O)C4CCC4)C3)c2)cc1)C1CC1 (configuration not stated)
52	?	1.5%	.	22%	COc1ccccc1N1CCN(CCCNC(=O)C2CCCN(c3ncnc4c3nc3n4CCCCC3)C2)CC1 (configuration not stated)
53	7%	4.6%	7	-1%	Cc1c(NC2=CC(=O)CC(C)(C)C2)c(=O)n(-c2ccccc2)n1C
54	5%	-0.5%	9	-7%	Cc1cc([N+](=O)[O-])cc2c1-c1ncccc1C2=Nc1ccccc1
55	-14%	0.3%	.	.	O=C(Nc1ccn(CCCNCc2ccccn2)c(=O)n1)OCc1ccccc1
56	28%	-1.4%	-18	3%	O=C(O)Cn1cc(C(=O)c2ccco2)c2ccccc21
57	0%	-4.7%	.	.	Cc1ccc(NC(=O)CSc2nc(=O)n(CCN(C)C)c3c2CCCC3)c(C)c1
58	-17%	-3.7%	3	0%	COc1cc(/C=N/NC(=O)c2cccc([N+](=O)[O-])c2)ccc1O
59	7%	0.1%	-5	-10%	O=C1CNC(=O)/C(=C/c2cccs2)N1
60	-8%	-1.5%	-4	0%	O=c1c2cc([N+](=O)[O-])ccc2nc(CN2CCN(c3ccccn3)CC2)n1-c1ccccc1F
61	1%	-0.5%	.	4%	NS(=O)(=O)c1ccc(CCNC(=O)c2coc3ccccc3c2=O)cc1
62	3%	-6.0%	6	5%	OC1(CNCc2cn[nH]c2-c2cc3ccccc3o2)CCCCC1
63	-12%	-1.4%	-9	-6%	O=C(COC(=O)C1CCC1)Nc1ccccc1Sc1ccccc1
64	1%	?	-1	-4%	CCn1c(CNc2ccccc2Cl)nnc1SCCN1CCCCC1
65	1%	-1.7%	.	1%	COc1ccc(CCNC(=O)CCNC(=O)c2ccc([N+](=O)[O-])cc2)cc1
66	-1%	4.4%	1	-7%	Cc1ccc(NC(=S)N2CCN(Cc3ccccc3)CC2)cc1
67	31%	-0.6%	?	-6%	CCOC(=O)N1CCN(C(=O)CSc2ccc(-c3ccc(OC)c(OC)c3)nn2)CC1
68	2%	-2.2%	.	-2%	O=C(CN(C(=O)CCC(=O)Nc1nccs1)c1cccc(C(F)(F)F)c1)NCC1CCCO1 (configuration not stated)
69	1%	4.1%	-3	-34%	O=C(CSCc1ccc(Cl)cc1)N1CCOCC1
70	10%	1.0%	.	-11%	CC(C)(C)c1ccc(C(=O)NCC(=O)N/N=C/c2cccs2)cc1
71	?	?	-8	-31%	COc1ccc2nc(/N=C/c3c(C)[nH]n(-c4ccc(C)cc4)c3=O)sc2c1
72	8%	0.6%	5	-1%	O=C(Nc1ccc2c(c1)OCO2)N1CCN(Cc2ccco2)CC1
73	-20%	-0.4%	11	0%	COc1ccccc1C1C(C(N)=O)=C(C)Nc2ncnn21 (configuration not stated)
74	-7%	-3.9%	-18	-10%	Cc1cccc2cc(C(c3nnnn3Cc3ccc4c(c3)OCO4)N3CCCC3)c(=O)[nH]c12 (configuration not stated)
75	19%	4.0%	.	-46%	Oc1ccc(N=Nc2ccccc2)cc1
